High-throughput results deposited in PubChem BioAssay by several laboratories.
Beta2AR agonist: agonists of human beta-2 adrenergic receptor inducing internalization; response, % (no concentration beside the values); 0.43% of 340,000 active; P07550; Am2.2-beta2AR cells, FAP receptor internalization, flow cytometry; reference of the scale not given here; AID 504454;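 active = response above a set limit, near 3 SD of response in nonfluorescent compounds, cut at about 42% in these data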;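 note: stock transfer was 100 nL into about 11 µL; a reference agonist was the positive control; negative values mostly stem from fluorescent compounds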
Target sequence (P07550 whole entry, looked up): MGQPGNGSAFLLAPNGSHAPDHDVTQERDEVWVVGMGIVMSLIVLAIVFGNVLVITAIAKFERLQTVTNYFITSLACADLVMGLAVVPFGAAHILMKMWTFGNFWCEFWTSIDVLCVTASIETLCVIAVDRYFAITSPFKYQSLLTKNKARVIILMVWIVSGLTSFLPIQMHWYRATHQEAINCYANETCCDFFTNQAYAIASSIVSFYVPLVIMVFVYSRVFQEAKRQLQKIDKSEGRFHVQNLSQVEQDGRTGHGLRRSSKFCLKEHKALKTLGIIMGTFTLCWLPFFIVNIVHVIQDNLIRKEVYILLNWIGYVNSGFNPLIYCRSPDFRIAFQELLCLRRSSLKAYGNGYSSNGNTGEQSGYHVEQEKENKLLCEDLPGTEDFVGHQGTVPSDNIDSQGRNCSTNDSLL
T cruzi repl: T. cruzi replication inhibition; T. cruzi beta-gal in NIH3T3, luminescence, 90 h; inhibition, % (concentration not given with the values); 1.4% of 300,000 active;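 active = mean inhibition across valid replicates above about 55%, limit read from the data; inconclusive = mean below that limit but half or more replicates reach it; inactive = mean below it, under half of replicates reach it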;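 note: signal also drops with host cell toxicity which is not excluded here; 0% = plate median of DMSO wells and 100% = zero luminescence signal; higher percent means less beta-gal luminescence so fewer parasites; stock transfer was 50 nL into about 50 µL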
LANA-H2B inh: blocks KSHV LANA binding to histone H2A/H2B. cell-free LANA-H2A/H2B peptide, fluorescence polarization. inhibition, % (no concentration beside the values). 0.6% of 320,000 active; in the data active = inhibition mostly above about 10%, no sharp cut-off; inactive = mostly below about 6.7%;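 note: stock transfer was 7.5 nL into about 10 µL; 0% = median of vehicle wells and 100% = median of positive control wells; one replicate is shown; the record names a cut of 25% in any replicate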
rRNA inh HTS: selective bacterial rRNA inhibition in E. coli | E. coli WT GFP vs humanized-ribosome RFP mutants, fluorescence, 24 h; active compounds read low; DMSO median 0, no signal -100 | GFP signal change (wild-type ribosome), % (concentration not given with the values) | 1.6% of 350,000 active | AID 720706;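 active = significant combined selectivity score with lowered wild-type GFP, culture density cut under 30%, mutant RFP and density less affected; inactive = any of these conditions unmet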; note: one replicate is shown; some compounds called inactive have numbers as strong as hits
Bfl-1 A1 inh: inhibitors of the anti-apoptotic protein A1, read as caspase activation; MEF A1-2A-BIM cells, Caspase-Glo 3/7 luminescence, 3 h; percent of clofoctol response, vehicle zero; AID 2462; caspase activation, % (concentration not given with the values); 0.066% of 330,000 active;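 active = over half of replicate activation scores above 10%, or exactly half above 10 with the replicate mean above 10; inconclusive = replicate mean below 10 yet half the replicates above 10; inactive = over half of replicates below 10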;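 note: wells of about 30 µL received 50 nL stock; many hits fall short of the cut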
Calb FLC: C. albicans growth modulation with fluconazole. C. albicans CaCi-2 (fluconazole-resistant clinical isolate) + fluconazole, Alamar Blue growth, 48 h. growth inhibition, % (concentration not given with the values). 0.57% of 300,000 active. AID 1979;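 active = most replicates above 75%; inconclusive = exactly half above 75%; inactive = most below 75%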;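 note: all wells also contain fluconazole at 8 µg/ml as a sub-toxic cotreatment; 0% = median of DMSO wells and 100% = median of geldanamycin control wells; wells of about 8 µL received 7.5 nL stock; the first replicate is given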
ALR inh: human ALR oxidase inhibition via reduced H2O2. P55789. AID 485317. purified ALR, DTT oxidation, H2O2 HRP-luminol luminescence. 3.8% of 290,000 active. inhibition, % (no concentration beside the values);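 active = mean and each replicate at 75% or more; inconclusive = only one of the two met; inactive = neither met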;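 note: stock transfer was 7.5 nL into about 7.5 µL; 0% = neutral wells and 100% = wells with inactivated enzyme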
Target sequence (P55789 whole entry, looked up): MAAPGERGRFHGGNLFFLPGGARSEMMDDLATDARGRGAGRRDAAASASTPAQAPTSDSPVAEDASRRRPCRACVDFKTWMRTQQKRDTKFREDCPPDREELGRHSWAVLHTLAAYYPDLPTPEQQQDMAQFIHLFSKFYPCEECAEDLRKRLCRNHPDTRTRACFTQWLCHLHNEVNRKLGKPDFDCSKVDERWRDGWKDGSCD
Beta apoptosis: beta cell apoptosis inhibition. INS-1E cytokine-induced death, ATP luminescence, 48 h; percent of positive-control rescue, neutral wells zero. protection from apoptosis, % (no concentration beside the values). 0.8% of 300,000 active. AID 435005;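 active = all replicates at 75% or more, or half of them and the mean; inconclusive = half reach 75% but not the mean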;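 note: 0% = cytokine-treated negative control wells and 100% = positive control rescue; higher means more ATP so stronger rescue from cytokine killing; wells of about 40 µL received 100 nL stock; the first replicate is given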
rRNA inh HTS OD600: second read-out of rRNA inh HTS, no call of its own (marks repeat the call); OD600 change, %; measured here: OD600 growth;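 optical density of the mix in the first replicate; 0 = DMSO median and -100 = no signal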
rRNA inh HTS RFP: also measured in rRNA inh HTS; calls as there; RFP signal change, %; measured here: RFP humanized mutant strains;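 first replicate; 0 = DMSO median and -100 = no signal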
* hit, by the source's call; ? = inconclusive; / = no result given. A portion of the library; rates above refer to the full screens.

SMILES | Beta2AR agonist | T cruzi repl | LANA-H2B inh | rRNA inh HTS | rRNA inh HTS OD600 | rRNA inh HTS RFP | Bfl-1 A1 inh | Calb FLC | ALR inh | Beta apoptosis
CCN(CC)S(=O)(=O)c1ccc(N2CCOCC2)c(NC(=O)c2ccc3ccccc3c2)c1 | -0.4 | 27.2 | -0.8 | / | / | / | 0.1 | -2.6 | -2.4 | 7.2
COCCn1c(SCC(=O)Nc2cc(C)on2)nc2ccccc21 | 4.9 | 0.4 | -4.1 | 3.8 | -5.1 | 0.4 | -0.4 | -3.5 | 2.6 | 0.9
CC(C)C(=O)Nc1ccc(C(=O)NNC(=S)NC(=O)c2ccco2)cc1 | / | -7.6 | -2.6 | -2.0 | 5.6 | 23.5 | -0.5 | -6.2 | 60.2 | 2.3
CCn1c(CC(=O)Nc2ccccc2OC)nnc1SCC(=O)Nc1ccccc1F | 0.8 | 3.6 | 4.8 | -2.8 | 1.3 | 0.3 | -0.7 | 13.0 | 93.1* | 4.7
CCc1ccc(S(=O)(=O)Nc2cccc(C3OCCCO3)c2)cc1 | -1.7 | -14.3 | 4.0 | -4.3 | -10.9 | 3.4 | 1.2 | -1.0 | -2.0 | /
Cc1ccc(N2CC(C(=O)Nc3nnc(C(C)C)s3)CC2=O)cc1 (stereo unspecified) | 4.4 | -13.6 | 2.5 | / | / | / | -0.1 | -6.7 | -5.6 | -7.9
CCOc1ccc(N2C(=O)c3ccc(C(=O)OCc4c(C)noc4C)cc3C2=O)cc1 | 1.2 | -12.0 | 1.3 | / | / | / | 0.2 | 4.0 | / | -2.0
O=C(CSc1ccccc1)Nc1cccc(S(=O)(=O)N2CCOCC2)c1 | -2.9 | / | 1.9 | -3.0 | -6.2 | -1.8 | 0.1 | / | -1.3 | -17.7
O=C(CSc1nnc(CNc2ccc(F)cc2)n1Cc1ccccc1)N1CCOCC1 | -5.5 | 0.4 | 2.1 | / | / | / | 0.1 | 4.4 | -0.2 | 1.2
Cc1cc(=O)[nH]c(SCC(=O)Nc2cc(S(=O)(=O)N3CCCC3)ccc2Cl)n1 | 1.2 | 14.1 | 4.5 | 0.5 | 0.1 | -9.3 | -0.2 | -1.1 | 0.4 | 3.6
CC(C)n1ncc2c(C(=O)NCC(=O)Nc3ccccc3Br)cc(C3CC3)nc21 | 3.2 | / | -7.8 | / | / | / | 0.1 | / | -4.3 | 4.7
COC(=O)c1cc(NC(=O)C2COc3ccccc3O2)ccc1Cl (stereo unspecified) | 1.4 | -10.6 | 1.5 | / | / | / | -0.3 | -20.6 | -10.2 | -0.8
O=C(NC1(C(=O)NC2CCCCC2)CCCCC1)c1ccccn1 | 2.7 | -6.4 | -0.9 | / | / | / | 1.1 | 6.7 | 40.5 | -0.9
O=Cc1ccc(Oc2cnccn2)cc1 | 5.3 | 16.4 | -3.3 | 15.8 | 16.4 | 0.3 | 2.1 | -11.6 | -11.9 | 1.2
CC(=O)c1ccc(NC(=O)C(C)n2nc(-c3ccccc3)c3cc(Cl)ccc32)cc1 (stereo unspecified) | 2.2 | 22.0 | -0.3 | 0.4 | 0.4 | 6.7 | 2.3 | -1.1 | -7.8 | /
O=C(CN(CCc1ccccc1)C(=O)CNS(=O)(=O)c1ccccc1)NCc1ccco1 | -8.4 | 6.2 | -0.1 | / | / | / | 0.1 | -3.7 | 5.5 | -0.1
CCOC(=O)N1CCC(NC(=O)CC(NS(=O)(=O)c2ccc(Cl)cc2)c2ccco2)CC1 (stereo unspecified) | 0.1 | 8.6 | -3.0 | / | / | / | 0.6 | -3.4 | 0.2 | 3.6
O=C(O)c1ccccc1Nc1cccc(OCc2ccc3ccccc3n2)c1 | -4.3 | / | 1.1 | -29.1 | -44.7 | -0.1 | 1.9 | / | 57.5 | -4.7
CCOC(=O)C(Cc1ccccc1)NC(=O)CCc1nnc2ccc(N3CCCC3)nn12 (stereo unspecified) | 1.2 | -26.3 | 0.9 | -9.5 | -4.0 | -5.5 | -1.1 | 1.5 | -3.0 | -0.4
CCCC(C(=O)NC1CCCC1)N(C(=O)Cn1nnc(-c2ccc(C)o2)n1)c1ccccc1OC (stereo unspecified) | -10.9 | 21.5 | -3.8 | 8.5 | 5.7 | -10.4 | 0.8 | 1.0 | 1.0 | 1.6
CCOC(=O)N1CCN(C(=O)COC(=O)C2CCN(S(=O)(=O)c3c(C)c(C)cc(C)c3C)CC2)CC1 | 2.4 | -9.3 | -0.5 | 3.2 | 2.2 | -0.1 | 1.2 | 3.1 | -6.2 | -1.2
N#Cc1ccc(-c2ccc(OCC(O)Cn3nnc4ccccc43)cc2)cc1 (stereo unspecified) | 0.9 | / | -2.4 | / | / | / | -0.9 | / | -3.8 | 19.8
Clc1ccccc1-c1nnc2sc(-c3ccncc3)nn12 | 5.2 | 15.9 | -2.2 | -13.3 | -4.7 | -0.6 | -0.5 | -3.1 | -1.4 | -10.8
O=C(c1ccc(NS(=O)(=O)c2cccs2)cc1)N1CCOCC1 | -5.0 | -10.1 | -2.3 | 6.1 | 3.7 | -1.6 | 0.3 | -1.1 | -11.6 | -2.9
CCOC(CCNC(=O)c1cc2c(=O)[nH]c3ccccc3c2s1)OCC | -2.7 | -11.3 | 1.1 | 2.0 | 5.5 | -0.5 | 0.1 | 8.2 | -1.7 | -5.1
COc1ccc(Cl)cc1NC(=O)CN(C)C(=O)c1cn2ccccc2n1 | 5.2 | / | -3.2 | -5.8 | -6.1 | 0.5 | 0.2 | / | 1.7 | -1.6
CC(C)(C)OC(=O)N1CCN(C(=O)c2[nH]cnc2C(=O)NCc2ccccc2)CC1 | -0.6 | / | 0.8 | 2.3 | 8.3 | 5.6 | -1.1 | / | 1.9 | 0.6
CCc1ccc(-c2cc(C)no2)cc1S(=O)(=O)Nc1cc(C)on1 | -0.5 | -13.3 | -2.2 | -5.6 | -3.2 | -0.4 | 0.6 | -2.5 | -0.1 | -7.0
Cc1cc(NC(=O)C2C3C=CC(C3)C2C(=O)O)no1 (stereo unspecified) | -2.1 | -1.5 | 3.1 | / | / | / | 0.9 | 3.7 | -2.0 | -1.4
COc1ccccc1NC(=O)N(Cc1cc2cc(OC)c(OC)cc2[nH]c1=O)CC1CCCO1 (stereo unspecified) | 0.2 | -0.6 | -4.5 | / | / | / | 0.5 | 4.1 | / | -6.4
COc1ccc(COc2ccc3ccc(=O)oc3c2)cc1 | 5.5 | -1.9 | 4.1 | -0.8 | 2.7 | 3.2 | -5.2 | -21.0 | / | -1.1
Cc1oc2c(c1C(=O)N1CCOCC1)C(=O)c1ccccc1C2=O | -15.2 | 33.3 | 4.4 | -10.8 | -17.4 | -7.7 | -0.1 | 37.0 | -60.8 | 108.0*
CC(C)c1ccc(/C=C(\NC(=O)c2ccccc2)C(=O)NCCN2CCOCC2)cc1 | -1.4 | 7.3 | -1.6 | 3.0 | 8.7 | 2.1 | 0.1 | 6.9 | -7.9 | /
CC1=C(C(=O)OCc2ccccc2)C(c2ccc(Cl)cc2Cl)NC(=O)N1CCCCCC(=O)O (stereo unspecified) | / | 26.0 | 3.4 | / | / | / | 0.8 | 4.5 | / | 2.3
CN1CCN(c2ccccc2NC(=O)c2ccc(N3CCCC3)c([N+](=O)[O-])c2)CC1 | -5.1 | 44.6 | -1.6 | -17.6 | -15.6 | 12.6 | -0.2 | 14.5 | 10.9 | /
Cc1ccc(C(=O)c2c(NC(=O)CSc3nnc(N)s3)sc3c2CCCC3)cc1 | 6.4 | 29.4 | 0.0 | -9.2 | -13.2 | -6.3 | -0.3 | 15.1 | 1.6 | 10.0
CCCCN(CCCC)CC(O)CN1C(=O)NC(C)(C)C1=O (stereo unspecified) | 4.9 | 2.8 | 0.8 | / | / | / | -0.3 | -4.3 | -2.1 | 1.5
COc1ccc(OC)c(-c2cc(C(=O)Nc3cccc(Cl)c3)no2)c1 | 1.5 | 55.2* | -0.9 | 0.0 | 11.9 | -7.1 | -0.3 | -5.2 | 0.1 | 3.2
COc1ccc(/C(N)=N/OC(=O)c2cccc([N+](=O)[O-])c2)cc1 | 1.4 | -7.9 | -3.8 | / | / | / | 2.0 | 3.1 | 33.7 | 0.3
O=C(COC(=O)c1ccc(OC(F)F)cc1)NC(=O)NC1CCCC1 | -2.2 | / | 0.4 | -14.0 | -10.9 | -2.5 | -0.1 | / | -14.0 | -9.4
COc1cc(/C=N/NC(=S)Nc2cccc(S(=O)(=O)N(C)C)c2)ccc1O | 8.1 | -26.9 | / | / | / | / | 0.7 | -10.6 | / | 4.6
CCn1c(O)c(C2=NCCCC2)c2ccccc21 | 5.2 | 12.3 | 0.9 | / | / | / | -0.1 | -6.8 | / | -3.9
Cc1ccc(-n2ncc3c(=O)n(CC(=O)NCc4ccco4)cnc32)cc1C | -2.3 | -24.9 | -4.1 | -0.4 | 3.6 | -8.2 | -0.4 | 12.8 | 9.6 | -2.3
COc1cc2c(cc1NC(=O)CSc1nnnn1-c1ccccc1)oc1ccccc12 | -1.7 | 17.5 | 0.4 | / | / | / | -0.3 | 5.7 | -2.2 | 15.6
O=C(NCCOC12CC3CC(CC(C3)C1)C2)c1cccc(Br)c1 | -12.2 | 13.4 | -6.1 | / | / | / | 0.4 | 4.6 | -3.4 | -1.7
COC(=O)c1cc(NC(=O)C2CCCN(S(=O)(=O)c3c(C)n[nH]c3C)C2)cc(C(=O)OC)c1 (stereo unspecified) | / | -8.1 | -0.3 | 12.4 | 13.9 | 15.4 | 0.7 | 1.5 | / | -2.2
Cc1ccc2nsnc2c1NC(=O)c1cncc(Br)c1 | 3.8 | -14.4 | -4.2 | 1.4 | 2.9 | 4.0 | 0.8 | -13.1 | -30.7 | -4.8
CCN(CCCNC(=O)Cn1ncc2c(=O)oc3ccccc3c21)c1cccc(C)c1 | 9.9 | 6.3 | 6.5 | -2.7 | -8.2 | 7.8 | 0.2 | 0.4 | / | -2.1
CCCCN(C(=O)CCCc1nc2ccccc2s1)c1c(N)n(CC(C)C)c(=O)[nH]c1=O | -2.5 | / | 176.4* | 0.5 | -0.2 | 0.3 | 0.6 | / | -9.8 | -0.1
COc1cccc(C(=O)Nc2ccccc2N2CCOCC2)c1 | -1.0 | 1.3 | -0.8 | / | / | / | 0.9 | 1.0 | -0.1 | -2.3
(list continues)
SMILES | Beta2AR agonist | T cruzi repl | LANA-H2B inh | rRNA inh HTS | rRNA inh HTS OD600 | rRNA inh HTS RFP | Bfl-1 A1 inh | Calb FLC | ALR inh | Beta apoptosis
COc1cc(C(=O)NCc2ncccc2C)ccc1OC1CCN(C(C)=O)CC1 | -3.9 | -3.3 | 2.1 | 7.2 | -0.8 | -0.2 | 0.6 | 2.7 | -2.0 | 3.7
CCOC(=O)c1[nH]c(C)c(C)c1C | -0.8 | -13.2 | 0.6 | / | / | / | 0.2 | 4.3 | -9.8 | -6.1
CSc1ncccc1C(=O)NCc1ccccc1Cl | 7.3 | -6.0 | 4.2 | -1.0 | -1.7 | 0.4 | 0.4 | -11.8 | / | -4.9
CC(C)(C)c1ccc(C(=O)NNC(=O)C2CCCCC2)cc1 | -2.5 | 9.1 | -3.8 | 15.3 | 13.2 | 2.4 | -0.6 | ? | -4.8 | -1.8
